High-throughput results: PubChem, National Center for Advancing Translational Sciences (NCATS)
AmpC nodet inh – Promiscuous and Specific Inhibitors of AmpC Beta-Lactamase (assay without detergent); P00811; AmpC nitrocefin hydrolysis, absorbance 480 nm, no detergent; potencies from a single point are estimates; Potency, µM (highest dose often 28.7 µM), without a hit: at the highest dose activity change, negative = inhibition; hit rate 1.8% among 71,000; AID 585, 2007; active = falling curve, for most hits resting on a single point; inconclusive = weak or doubtful change; inactive = flat or rising curve; also: % of control where 0% means no effect; about half of the hits show no inhibition at the top dose; a quarter of the inactives give rising signals
Target sequence (P00811 whole entry, looked up): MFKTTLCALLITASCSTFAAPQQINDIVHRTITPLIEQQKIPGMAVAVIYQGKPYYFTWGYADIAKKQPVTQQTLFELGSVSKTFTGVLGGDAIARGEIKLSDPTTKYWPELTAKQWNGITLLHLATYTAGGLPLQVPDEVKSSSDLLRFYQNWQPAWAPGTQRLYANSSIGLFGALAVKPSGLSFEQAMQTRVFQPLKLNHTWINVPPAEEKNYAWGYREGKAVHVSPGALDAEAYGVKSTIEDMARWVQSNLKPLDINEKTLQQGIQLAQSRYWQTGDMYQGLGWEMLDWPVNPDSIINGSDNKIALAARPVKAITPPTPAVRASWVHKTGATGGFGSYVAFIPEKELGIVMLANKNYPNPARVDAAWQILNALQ
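Enzyme, pH 7.0 phosphate. Compound titrations were pre-incubated with AmpC for 15 min at room temperature before nitrocefin (stock 800 uM) addition; product formation was recorded at 480 nm every 20 s for 4 min.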
* hit, by the source's call; [ ] = dose if it differs, or a comment. Potency is read from the fitted curve at half-maximal effect. An excerpt (hit frequency here may not be typical).

structure	AmpC nodet inh
Cc1sc2ncn(CC(=O)NCC(=O)N3CCC4(CC3)OCCO4)c(=O)c2c1C	23%
COC(=O)c1ccccc1NC(=O)C1CC(=O)N(C2CCCCC2)C1 (stereo unspecified)	46%
O=c1cc(-c2ccccc2)nc(N2CCN(Cc3ccc4c(c3)OCO4)CC2)[nH]1	-11%
O/N=C1/C(=C\c2ccccc2)N2CCC1CC2	-9%
Cc1ccccc1NC(=O)C1CCN(c2cnccn2)CC1	-1%
COc1c(C(C)(C)C)cc([N+](=O)[O-])c(C)c1[N+](=O)[O-]	-4%
CCCn1c(-c2ccc(F)cc2)nc2c(NC3CCN(Cc4ccccc4)CC3)nc(C)nc21	115%
O=C1C(=O)N(CCO)C(c2ccccc2)/C1=C(\O)c1ccccc1 (stereo unspecified)	-2%
C[C@@]12CC[C@H](O[C@@H]3O[C@H](CO)[C@@H](O)[C@H](O)[C@@H]3O)C[C@@H]1CC[C@H]1[C@H]2CC[C@@]2(C)[C@@H](C3=CCOC3=O)CC[C@]12O	-1%[5.75 µM]
COc1ccccc1NC(=O)c1cc2ccc(O)cc2o/c1=N\O	-5%
CCCCC(C=O)NC(=O)C(CC(C)C)NC(=O)OCc1ccccc1 (stereo unspecified)	35%
Cc1ccccc1S(=O)(=O)Cc1ccc(C(=O)NCCCOC(C)C)o1	31%
C=CCN(CC=C)C(=O)Nc1cc(Cl)ccc1OC	2%
CC(=O)c1c(N2CCOCC2)nc(=S)n(-c2cc(C)ccc2C)c1C	9%
COc1cc2c(cc1NC(=O)COC(=O)Cn1cnc3ccccc31)oc1ccccc12	94%
O=C(NC1CCCCC1)C(c1ccco1)N(Cc1cccnc1)C(=O)C1COc2ccccc2O1 (stereo unspecified)	64%
c1cncc(-c2cc(-n3ccnc3)ncn2)c1	-7%
O=C(O)C1C2C=CC(C2)C1C(=O)NCCc1ccccc1 (stereo unspecified)	6%
Cc1c(=O)n(OCc2ccccc2)c2ccccc2[n+]1[O-]	1%
COc1ccc(-c2nnc(SCC(=O)Nc3ccc(Cl)cc3)n2C)cc1	-16%

The closing 2 compounds of the section before are carried over, then new ones follow:
structure	AmpC nodet inh
Cc1c(=O)n(OCc2ccccc2)c2ccccc2[n+]1[O-]	1%
COc1ccc(-c2nnc(SCC(=O)Nc3ccc(Cl)cc3)n2C)cc1	-16%
COC(=O)c1c(NC(=O)c2ccc(S(=O)(=O)N3CCOCC3)cc2)sc2c1CCN(C)C2	92%
CCOC(=O)C1=C(C)NC(=O)C(C#N)C1c1ccncc1 (stereo unspecified)	-12%
COC(=O)c1ccccc1N1C(=O)C2C(C1=O)C1C=CC2C12CC2 (stereo unspecified)	9%
CCCS(=O)(=O)N1CCCC(C(=O)NCc2ccc3c(c2)OCO3)C1 (stereo unspecified)	3%
COCCNC(=O)Cn1nc(C(F)(F)F)c(Cl)c1C	1%
CCCCN(C)CCCNC(=O)C1CC(=O)N(Cc2ccc(OC)cc2)C1 (stereo unspecified)	-20%
O=S(=O)(NCC(c1cccnc1)N1CCN(c2ccccc2)CC1)c1cc(F)ccc1F (stereo unspecified)	65%
C[C@@H]1C=C[C@](Cc2ccccc2)(C(=O)NCC2CC2)N1C(=O)c1ccccc1	46%
CCOC(=O)C1=C(C)Nc2ncnn2C1/C=C/c1ccccc1 (stereo unspecified)	10%
CC1CCCN(C(=O)CN2CCN(C(=O)c3ccco3)CC2)C1 (stereo unspecified)	-3%
CCOC(=O)C1CCN(c2c(NCc3ccc(C(=O)NCCOC)cc3)c(=O)c2=O)CC1	2%
CCOC(=O)c1ccc(NC(=O)CC2SC(=NC)N(C)C2=O)cc1 (stereo unspecified)	40%
CC(=O)Nc1cc(OC(C)=O)c2nonc2c1OC(C)=O	-1%
CCC(=O)N1c2ccccc2NC2=C(C(=O)CC(c3ccco3)C2)C1c1ccco1 (stereo unspecified)	11%
N#CC1=C(N)N(c2ccccc2Sc2ccccc2)C(=O)C1	-8%
Cc1cc(C(=O)CSc2nnc(-c3ccccc3)n2Cc2ccc3c(c2)OCO3)c(C)n1C	40%
COc1ccc(-n2nc(C(=O)NCC(=O)N3CCN(c4ccccn4)CC3)c3ccccc3c2=O)cc1	92%
CC(=O)Nc1cccc(NC(=O)c2sc3ncn(CC(=O)N4CCCCC4)c(=O)c3c2C)c1	98%
CCOc1nc(-c2ccc(C)cc2)ccc1-c1noc(-c2cccnc2)n1	6%
Cn1c(O)c(C=NCCN2CCN(C(=O)c3ccccc3)CC2)c(=O)n(C)c1=O	9%

Next part:
structure	AmpC nodet inh
COc1cc2c(c(OC)c1)C(c1cccc(OC)c1OC)CC(=O)N2 (stereo unspecified)	15%
CCC(C)(C)n1nnnc1C(c1cc2cc(C)cc(C)c2[nH]c1=O)N1CCCC1 (stereo unspecified)	85%
Cc1ccc(S(=O)(=O)Cc2cn3cccnc3n2)cc1	-8%
O=C(Nc1ccc2oc(-c3cccnc3)nc2c1)c1cc2ccccc2o1	3%
CC1CCN(CCC(=O)N2CCCc3c2c(=O)oc2ccc(O)cc32)CC1	0%
COC(=O)C1=C(C)N(c2cc(Cl)cc(Cl)c2)C(=O)C1	30%
O=C(NCCCn1ccnc1)c1csc2ccccc12	-4%
O=C1NC(c2ccc3c(c2)OCO3)Oc2ccccc21 (stereo unspecified)	-4%
c1ccc(-c2ccc(-n3ccnc3)cc2)cc1	18%
COC(=O)c1c(N)c(C#N)c(C)n1-c1ccccc1	2%
CSCC[C@@H](N)P(C)(=O)O	-7%[5.75 µM]
COc1ncc2nc(CCc3ccccc3)c(=O)n(C)c2n1	18%
Oc1c(C(c2ccco2)N2CCC3(CC2)OCCO3)sc2ncnn12 (stereo unspecified)	15%
CC(C)(C)NC(=O)COC(=O)c1ccc(O)cc1	-6%
CCC(=O)N1CCN(c2ccccc2NC(=O)COc2cccc(C)c2)CC1	86%
CC1CN(C(=O)CN2C(=O)NC(C)(c3ccccc3)C2=O)CC(C)O1 (stereo unspecified)	-1%
CC(C)NC(=O)[C@H]1C[C@@H]1[C@H](NC(=O)OCc1ccccc1)c1ccccc1	10%
CCOCc1nnc(NC(=O)CCc2ccccc2)s1	12%
CC(C)(N=NC(C)(C)C(=N)N)C(=N)N	2%[5.75 µM]
Cc1nc(C)c(C(=O)C2=C(O)C(=O)N(CCCn3ccnc3)C2c2ccc(Cl)cc2)s1 (stereo unspecified)	10%

Other structures.
structure	AmpC nodet inh
CN(C)Cc1ccccc1-c1nc(NC2CCNCC2)c2ccccc2n1	18%
CCCc1cc(=O)[nH]c(SCC(=O)N(CC)Cc2ccccc2)n1	15%
CCOc1ccccc1Nc1nnc(SCC(=O)N2CCCC2)s1	18%
CN(C)C1NC(=O)c2cc(-c3ccccc3)sc2N1 (stereo unspecified)	120%
COc1ccc(O)c(C(=O)CC(=O)c2ccc(F)cc2)c1	15%
Cn1c(=O)c(-c2cccs2)nc2cnc(N3CCOCC3)nc21	-7%
CCOC(=O)c1sc2nc(-c3ccco3)c3c(c2c1N)CC(C)(C)OC3	84%
O=C(c1ccc(Cl)s1)N1CCOCC1	-1%
CCOC(=O)c1ccc(NC(=O)C(CC)(CC)C(=O)OCC)cc1	27%
Cc1nc(N2CCCC2)c2nnn(Cc3ccccc3Cl)c2n1	46%
CCOc1cc(C(=O)NCCOC)cc(OCC)c1OCC	17%
c1ccc(N2CCN(c3ncnc4sc5c(c34)CCC5)CC2)cc1	11%
Cc1cc(C)n(CC(O)COCc2ccccc2)n1 (stereo unspecified)	9%
Cc1csc(SCCn2c(N3CCN(c4ccccc4)CC3)nc3c2c(=O)[nH]c(=O)n3C)n1	89%
Cc1cccc(C(=O)O)c1	-5%
O=C(c1ccc(S(=O)(=O)N2CCOCC2)cc1)N1CCc2ccccc2C1	11%
O=C(O)CCCC(=O)NCc1ccccn1	-6%
Cc1ccccc1OCC(=O)OC(C)CN1CCN(C)CC1 (stereo unspecified)	10%
CC[C@H]1C2=C3C(CC[C@H]4C(OCc5ccc(F)cc5C(F)(F)F)OC[C@](C)([C@@H]34)N(C(=O)OC(C)(C)C)C2)C(COC)C1COC (stereo partly specified)	26%
COc1ccc(CNc2ccnc(-c3ccccc3OC)n2)c(OC)c1	78%

Further compounds:
structure	AmpC nodet inh
COC(=O)c1ccc(S(=O)(=O)N2C3CCC2CC(NC(=O)NC2CCCCC2)C3)cc1 (stereo unspecified)	17%
c1ccc(Cn2nnnc2C(c2cccs2)N2CCc3ccccc3C2)cc1 (stereo unspecified)	-2%
Clc1ccc2nc(N3CCCCC3)sc2c1	0%
COC(=O)c1ccc(C(NC(=O)OCc2ccccc2)/C(F)=C/[C@@H](C)C(=O)NCCc2c[nH]c3ccc(OC)cc23)cc1 (stereo partly specified)	-3%
N#Cc1ccccc1NC(=O)CSc1nnc(-c2ccccc2)n1-c1ccccc1	25%
CCOC(=O)C(CCCOc1cccc(OC)c1)C(=O)OCC	60%
Cn1c(SCC(=O)NCc2ccc3c(c2)OCO3)nc2scc(-c3cccs3)c2c1=O	16µM*[single pt active]
CCOC(=O)C1CCN(S(=O)(=O)Cc2ccccc2)CC1	2%
CC1(C)CC(=O)C(C=NCc2cccnc2)=C(O)C1	7%
Cc1noc(C)c1-c1nccc(NCc2cccnc2)n1	1%
COC(=O)c1cccc(S(=O)(=O)N2CCC(C)CC2)c1	7%
Cn1c(SCC(=O)NCC2CCCO2)nnc1-c1ccc(S(=O)(=O)N2CCCC2)cc1 (stereo unspecified)	16%
CC(=O)OC(C(=O)n1nc(C)cc1C)c1ccccc1 (stereo unspecified)	14%
CC(=O)CCc1ccc(OC(=O)c2cccnc2)cc1	6%
c1ccc(-c2cnnc(N3CCCCC3)n2)cc1	18%
Cc1c(C(=O)OC2CCCCC2)[nH]c2c1C(=O)CC(C)(C)C2	-13%
CSc1nc2ccc(S(=O)(=O)NC3CCCCC3)cc2s1	-10%
CCOC(=O)c1cc2sc(C)cc2n1CC(=O)N1CCc2ccccc21	9%
Cc1cc(C(=O)N2CCN(C(=O)C3CCCO3)CC2)no1 (stereo unspecified)	-1%
COc1ccc2c(c1)CC(C1(O)C(=O)Nc3ccccc31)C2=O (stereo unspecified)	-4%

(listing goes on)
structure	AmpC nodet inh
COc1ccc(Cl)c(Cn2c(NCc3ccco3)nc3c2c(=O)n(C)c(=O)n3C)c1	71%
COc1ccc(NC(=O)N2CC3(CCN(C(=O)c4cccn4C)CC3)C2)cc1	43%
CCOC(=O)c1[nH]c(C)c(CN(CCc2ccccc2)S(C)(=O)=O)c1C	24%
CC(CCc1ccccc1)NC(=O)c1nnc(Cc2ccc(F)cc2)o1 (stereo unspecified)	30%
CC(C)COc1ccc(/C(O)=C2/C(=O)C(=O)N(CCN(C)C)C2c2ccncc2)cc1 (stereo unspecified)	7%
C=CCSc1nsc(N)n1	-12%
CC1(C)Cc2c(c(N3CCOCC3)nc3sc(C(=O)N4CCCCC4)c(N)c23)CO1	4µM*[single pt active]
CNc1nc(-c2ccc(Cl)cc2)cs1	-2%
COC(=O)c1[nH]c2c(c1C)C(=O)CC(c1cc(OC)ccc1OC)C2 (stereo unspecified)	2%
Cc1ccccc1CS(=O)(=O)Cc1ccc(C(=O)NCc2cccnc2)o1	6%
COc1ccc(-c2cc(C(F)(F)F)nc(SCC(=O)NCc3ccco3)n2)cc1OC	94%
Cc1ccc(C(=O)NCc2ccc3c(c2)OCO3)cc1S(=O)(=O)N1CCOCC1	9%
Clc1ccc(OCCCc2nc(-c3cccnc3)no2)c(Cl)c1	84%
COC(=O)c1ccccc1NC(=O)CSc1ccccc1	8%
Nn1c(SCC(=O)Nc2cccc(F)c2)nnc1C1CCCCC1	17%
CCOc1ccc(NC(=O)CN(c2cc(C)cc(C)c2)S(=O)(=O)c2c(C)noc2C)cc1	1%
COc1ccc(C(CC(=O)O)NC(=O)COc2ccccc2)cc1 (stereo unspecified)	11%
CC(C)[C@@]1(NC(=O)[C@@H]2C=C3c4cccc5[nH]cc(c45)C[C@@H]3N(C)C2)O[C@]2(O)[C@H]3CCCN3C(=O)[C@H](Cc3ccccc3)N2C1=O	75%
O=C(NCc1ccc(N2CCCC2=O)cc1)c1cn(Cc2ccccc2)nn1	3%
COc1c(-c2ccccc2)oc2c(ccc3occc32)c1=O	57%

By substructure: the compounds so far with an NH in an aromatic ring
structure	AmpC nodet inh
O=c1cc(-c2ccccc2)nc(N2CCN(Cc3ccc4c(c3)OCO4)CC2)[nH]1	-11%
CCC(C)(C)n1nnnc1C(c1cc2cc(C)cc(C)c2[nH]c1=O)N1CCCC1 (stereo unspecified)	85%
CCCc1cc(=O)[nH]c(SCC(=O)N(CC)Cc2ccccc2)n1	15%
Cc1csc(SCCn2c(N3CCN(c4ccccc4)CC3)nc3c2c(=O)[nH]c(=O)n3C)n1	89%
COC(=O)c1ccc(C(NC(=O)OCc2ccccc2)/C(F)=C/[C@@H](C)C(=O)NCCc2c[nH]c3ccc(OC)cc23)cc1 (stereo partly specified)	-3%
Cc1c(C(=O)OC2CCCCC2)[nH]c2c1C(=O)CC(C)(C)C2	-13%
CCOC(=O)c1[nH]c(C)c(CN(CCc2ccccc2)S(C)(=O)=O)c1C	24%
COC(=O)c1[nH]c2c(c1C)C(=O)CC(c1cc(OC)ccc1OC)C2 (stereo unspecified)	2%
CC(C)[C@@]1(NC(=O)[C@@H]2C=C3c4cccc5[nH]cc(c45)C[C@@H]3N(C)C2)O[C@]2(O)[C@H]3CCCN3C(=O)[C@H](Cc3ccccc3)N2C1=O	75%

More records follow.
structure	AmpC nodet inh
CC(=O)N(c1ccc(Br)cc1)C1C=CS(=O)(=O)C1 (stereo unspecified)	5%
O=c1cc(O)n(-c2ccccc2F)c(=S)[nH]1	-14%
Clc1ccc(CSC2=NCCN2)cc1Cl	-3%[5.75 µM]
O=S(=O)(NCc1ccccn1)c1ccc(Br)s1	-13%
